NPYLR7 ag: activates Aedes aegypti NPYLR7 receptor | activation, % at 10 µM | HEK293T NPYLR7/Galpha15, GCaMP6s calcium fluorescence | hit rate 0.15% among 270,000 | AID 1259423; in the data active means activation above about 40%;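 further: 0% = vehicle and 100% = reference agonist at the receptor; some compounds past the cut are filed as inactive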
NPYLR7 ag max-min: further read-out of NPYLR7 ag, marked with its call; activation, %; measured here: Max-Min RFU normalised activation; some inactives read as strong as hits;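 span of the calcium signal over five minutes; 0% = vehicle and 100% = native peptide agonist; compound fluorescence can raise it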
Active calls of the source: *; & = joins results of further samples.

SMILES	NPYLR7 ag	NPYLR7 ag max-min
CCOc1ccccc1NC(=O)N(CC(=O)N1c2ccccc2-n2cccc2C1c1ccc(F)cc1)C1CC1 (stereo unspecified)	19	18
CC(N)=C(C#N)C(=O)COC(=O)c1cnc(C)cn1	-2	-3
CCOC(=O)c1cc(-c2ccc(N3CCN(C(=O)C(OC(C)=O)c4ccccc4)CC3)cc2)n(-c2ccccc2Cl)n1 (stereo unspecified)	26	16
Cc1cccc(Oc2cnn(-c3ccc(Cl)cc3)c(=O)c2Nc2ccc(C(=O)NCc3ccco3)cc2)c1	11	8
O=C(CSc1ccccn1)NCc1cccnc1Oc1ccccc1	9	3
CCc1nc2ccc(C(=O)NCCCn3ccnc3)cn2c1N(C)CCCc1ccccc1	-2	9
CN(Cc1cnc(N)nc1)Cc1nc(-c2ccccc2)no1	31	22
CCc1nnc2n1N(C(C)=O)C(c1ccc(C(C)(C)C)cc1)=C(C(C)=O)S2	6	2
O=C(CSc1ccccn1)NC1CCCN(c2ccc(C(F)(F)F)cn2)C1 (stereo unspecified)	9	4
Cn1c(Cn2nnc3ccccc3c2=O)cc(=O)n(C)c1=O	1	-1
Cc1c(COc2ccccc2)cccc1NC(=O)C1CC(=O)N(C)C1 (stereo unspecified)	-21&1	-23&-1
Fc1ccc(C2CCN(Cc3nc(Cc4ccccc4Cl)no3)C2)cc1 (stereo unspecified)	11	-3
N#Cc1cccc(NC(=O)c2ncc(Cl)c(Cl)c2Cl)c1	7	2
O=C(CSc1nnnn1Cc1cccs1)N(C1CCCC1)C1CCS(=O)(=O)C1 (stereo unspecified)	3	1
O=C(c1cn(CC2CCCNC2)nn1)N1CCN(c2ccccc2F)CC1 (stereo unspecified)	-8	-14
O=C(NC1CCC(O)CC1)c1ccc2c(c1)S(=O)(=O)N=C1CCCCCN12 (stereo unspecified)	1	0
COc1ccc(OC)c(-c2cnc(-c3cccc(CNC(=O)c4cccnc4Sc4ccccc4)c3)[nH]2)c1	2	2
Cc1ccc(CNC(=O)c2cc(N3CCSCC3)nc3ccccc23)o1	22	29
CC(=O)Nc1ccc(Nc2cc(C(C)C)nc3c(-c4ccccc4)c(C)nn23)cc1	0	7
COc1ccc2c(c1)C(C)(Cc1ccc(Cl)cc1)C(=O)N2 (stereo unspecified)	8	6

Copied from the list.
`O=C(CSc1nnnn1Cc1cccs1)N(C1CCCC1)C1CCS(=O)(=O)C1` (stereo unspecified) in NPYLR7 ag has 3
`COc1ccc(OC)c(-c2cnc(-c3cccc(CNC(=O)c4cccnc4Sc4ccccc4)c3)[nH]2)c1` in NPYLR7 ag has 2
`Cc1ccc(CNC(=O)c2cc(N3CCSCC3)nc3ccccc23)o1` in NPYLR7 ag has 22
`N#Cc1cccc(NC(=O)c2ncc(Cl)c(Cl)c2Cl)c1` in NPYLR7 ag max-min has 2
`Fc1ccc(C2CCN(Cc3nc(Cc4ccccc4Cl)no3)C2)cc1` (stereo unspecified) in NPYLR7 ag max-min has -3
`Cc1cccc(Oc2cnn(-c3ccc(Cl)cc3)c(=O)c2Nc2ccc(C(=O)NCc3ccco3)cc2)c1` in NPYLR7 ag max-min has 8
`CC(=O)Nc1ccc(Nc2cc(C(C)C)nc3c(-c4ccccc4)c(C)nn23)cc1` in NPYLR7 ag max-min has 7

Next part.
SMILES	NPYLR7 ag	NPYLR7 ag max-min
C/C(=N/NC(=O)COc1cc(C)cc(C)c1)c1ccc(NS(=O)(=O)c2ccccc2[N+](=O)[O-])cc1	3	0
CN1CCC(Cc2noc(-c3ccc(-c4ccn[nH]4)cc3)n2)CC1	-3	7
O=C(CC(c1ccccc1)c1ccccc1F)NCCc1cnc[nH]1 (stereo unspecified)	13	-2
COCc1ncc(CN2Cc3c(-c4cccc(C)c4)nc(N)nc3C2C)cn1 (stereo unspecified)	16	9
Cc1ccsc1C(=O)OCc1nc2ccsc2c(=O)[nH]1	-2	-3
CCn1ccc(-c2[nH]cnc2-c2ccccc2)n1	-1	-6
COc1ccc(CNC(=O)c2cccnc2N2CCN(C(=O)c3ccc(-c4ccc(F)c(F)c4)s3)CC2)cc1	4	3
CCC(CC)NC(=O)COC(=O)c1cc(-c2ccc(OC)c(OC)c2)nc2ccccc12	-3	-5
Cc1nc2n(COCCO)cnn2c(=O)c1Br	3	0
CC(C(=O)NCCCn1cncn1)n1cnc2ccccc21 (stereo unspecified)	-2	0
COc1ccccc1C(=O)N1CCC(C(NC(=O)c2ccc(C)cc2)C(=O)NC2CC2)CC1 (stereo unspecified)	8	7
O=C(Cc1ccc(N2CCCC2=O)cc1)NCC1(c2ccccc2)CCCCC1	-2	-8
COc1cccc(C(=O)N2CCCC(CCC(=O)N3CCN(c4ccccn4)CC3)C2)c1 (stereo unspecified)	1	-1
CS(=O)(=O)N1CCC(C(=O)N2CCN(CCc3nc(-c4cccs4)cs3)CC2)CC1	0	-2
CC(=O)Nc1nc(C(=O)N2CCCCCc3ccccc32)cs1	-4	-2
O=C(NCc1nnnn1C1CCCCC1)c1cccc(Cl)c1	1	0
Cc1nn(C)c(C)c1CC(C)NC(=O)Nc1cccc(S(C)=O)c1 (stereo unspecified)	1	0
CN(CCCC1CCCO1)C(=O)C1(N)CC1 (stereo unspecified)	2	-9
Cc1csc2nc(CSc3nnnn3C3CCCC3)cc(=O)n12	-1	2
COc1c(F)cccc1C(=O)N1CCC(CO)(CCOc2ccccc2)CC1	12	8

By substructure: the compounds so far containing a furan ring, fused or not (two)
SMILES	NPYLR7 ag	NPYLR7 ag max-min
Cc1cccc(Oc2cnn(-c3ccc(Cl)cc3)c(=O)c2Nc2ccc(C(=O)NCc3ccco3)cc2)c1	11	8
Cc1ccc(CNC(=O)c2cc(N3CCSCC3)nc3ccccc23)o1	22	29

Remaining list, next part.
SMILES	NPYLR7 ag	NPYLR7 ag max-min
CCSc1nnc(CSc2ncccn2)n1CCc1ccccc1	2	4
CC1(C)CC2(CCO1)C(Nc1ccccc1)=NC(=S)N2CC#N (stereo unspecified)	-2	-6
COC(=O)c1ccccc1CN(Cc1cccn1Cc1cccc(OC)c1)CC1CCCCC1	-1	0
O=c1cccnn1CCNS(=O)(=O)c1cccc(C(F)(F)F)c1	0	-3
CCCn1cc(C(=O)NCCCOC(C)C)c2nn(-c3ccccc3)c(=O)c-2c1	10	8
CC1CCCCN1C(=O)C(NC(=O)c1cccs1)C1CCN(C(=O)c2ccc(Cl)cc2)CC1 (stereo unspecified)	-6	-4
O=C(c1ccccc1S(=O)(=O)Cc1ccccc1)N1CCn2cncc2C1	0	-5
Cc1ccc(CN2C(=O)C(C)Oc3ccc(C)cc32)cc1 (stereo unspecified)	0	-1
CCOc1cnn(C)c(=O)c1Nc1ccc(C(=O)NCc2ccc(F)cc2)cc1	3	5
O=C(Nc1n[nH]c(=S)s1)c1cccs1	2	1
CCCCc1[nH]nc2c1C1(CCN(CC)CC1)C(C#N)C(=N)O2 (stereo unspecified)	9	7
C=CCN1C(=O)NC(=O)/C(=C/c2ccc(Br)cc2)C1=O	-7	-10
CN(Cc1ccc(Cl)s1)S(=O)(=O)c1ccc(Cl)cc1	1	8
CN1CC2(CCN(C(=O)CCn3nnc(-c4ccccc4)n3)C2)OC1=O (stereo unspecified)	8	3
CC(=O)OCC(=O)C12OC3(CCCC3)OC1CC1C3CCC4=CC(=O)C=CC4(C)C3(F)C(O)CC12C (stereo unspecified)	-8	-12
CC1=NN(CC(=O)NCCc2nc(C)c(C)s2)CC1	10	5
O=C1C(=O)N(CCCN2CCOCC2)C(c2ccco2)C1=C(O)c1ccc(Cl)cc1 (stereo unspecified)	5	6
COCCN(Cc1cccc(OS(=O)(=O)c2ccc(F)cc2)c1)C(=O)Nc1cccc(C(F)(F)F)c1	-2	13
CCCSc1nnnn1-c1ccc(O)cc1	5	5
CS(=O)(=O)OCCNC(=O)c1cc2ccccc2oc1=O	5	-3
CCc1c(C)c(C(=O)NCCc2ccc(OC)c(OC)c2)n(Cc2cccc(F)c2)c1C	2	8
Cc1nc(C(C)NC(=O)CCCn2nnnc2CN2CCC(C)CC2)c(C)s1 (stereo unspecified)	-6	-7
CCN(Cc1ccsc1)Cc1noc(C2CCC2)n1	-2	-3
CC1CCCCC12NC(=O)N(CC(=O)Nc1ccc(NC(=O)C3CC3)cc1)C2=O (stereo unspecified)	12	7
CCOc1ccccc1CNC(=O)CCc1cc2c(n1-c1ccc3ncsc3c1)-c1ccc(OC)cc1CC2	5	1
COCC(=O)Nc1c(-c2ccc(C)cc2)nc2cc(C)ccn12	-4	3
COCCN(Cc1nc(-c2ccc(OC)c(C)c2OC)oc1C)C(C)C	-4	2
N#CCOc1ccc(/C=C/C(=O)Oc2ccc(CC3COC(=O)N3)cc2)cc1 (stereo unspecified)	4	11
Cn1c(=S)[nH]c2c(-c3ccccc3)csc2c1=O	-2	-4
CCCN(Cc1ccc(SC)cc1)C(=O)c1ccc2c(c1)nnn2C	-1	-2
NC(c1ccccc1)C1CCCCC1 (stereo unspecified)	8	3
CNC(=O)CN(Cc1cccc(Br)c1)C1CC1	3	0
Oc1cccc(-c2cc(C3(CNc4cccc(Cl)c4)CC3)ccn2)c1	-4	-1
O=S(=O)(c1ccc(Sc2nnnn2C2CCCC2)nc1)N1CCOCC1	7&2	9&-2
Cc1nccn1-c1cc(C(C)C)nc2c(-c3ccccc3)cnn12	2	10
CCOc1ncccc1-c1ccc(-c2nnc(C)o2)cc1	-2	-8
CCCN(CC1CCCO1)C(=O)CC1(c2ccccc2F)CC(=O)N(C2CCCC2)C1=O (stereo unspecified)	2	-4
Cc1ccc(CN(CCc2ccccc2)C(=O)CN(CCN2CCOCC2)Cc2ccc([N+](=O)[O-])cc2)o1	-2	3
COCCCn1c(SC(C(=O)NC(N)=O)C(C)C)nnc1-c1ccc(Cl)cc1 (stereo unspecified)	11	8
Cc1cc(=O)[nH]c(NNC2=NCCCCC2)n1	1	-1
O=C(CNCCc1ccc(O)cc1)Nc1ccc(Cl)cc1F	16	12
COC(=O)c1sc(NC(=O)[C@@H](NC(=O)c2ccccc2F)C(C)C)nc1C	20	16
Cc1cc(C(=O)N2CCC(CCC(=O)NC3CCN(Cc4ccccc4)C3)CC2)n[nH]1 (stereo unspecified)	13	11
Cc1ccccc1OCCn1c(SCc2nc3ccccc3[nH]2)nc2ccccc21	0	6
CCc1nc2ccc(C(=O)N3CCCC(C(N)=O)C3)cn2c1N(CCC(C)C)CCN(C)C (stereo unspecified)	12	-3
O=S1(=O)CCN2C(c3ccc(Br)cc3)=CSC2=N1	0	-1
Cc1cc(C(=O)N2CCOC(COCc3ccccc3F)C2)cc(Cl)n1 (stereo unspecified)	-3	-12
CC(OC(=O)C1=COCCO1)C(=O)NC1CCCC(C)C1C (stereo unspecified)	0	3
Cc1cc(C)cc(CC(=O)N2CCC2(C)C(=O)NCc2cccs2)c1 (stereo unspecified)	4	2
N[C@@H]1CC[C@@H](NC(=O)CCn2c(=O)[nH]c3ccccc32)C1	6	4
COc1ccccc1OCCn1c(C2CC(=O)N(C(C)(C)C)C2)nc2ccccc21 (stereo unspecified)	1	-4
CCOc1ccc(C(C2Sc3nc(C)nn3C2=O)N2CCN(C)CC2)cc1OC (stereo unspecified)	-2	-4
Cc1ccc(Cn2cc(C(=O)Nc3ccc(F)c(F)c3)ccc2=O)cc1	14	7
Cc1cc(OCC2CN(C(=O)C(C)Oc3cccc(Cl)c3)CCO2)ccc1Cl (stereo unspecified)	25	30
CCN1CCN(C(=O)c2ccc(OCC3CC3)nc2)c2ccccc21	-1	12

3 of these compounds in another layout:
| mol | NPYLR7 ag | NPYLR7 ag max-min |
| --- | --- | --- |
| NC(c1ccccc1)C1CCCCC1 (stereo unspecified) | 8 | 3 |
| CNC(=O)CN(Cc1cccc(Br)c1)C1CC1 | 3 | 0 |
| Oc1cccc(-c2cc(C3(CNc4cccc(Cl)c4)CC3)ccn2)c1 | -4 | -1 |

Compound activity (PubChem BioAssay)

Not all compounds are listed; rates above refer to the full screens.
